Assay outcomes deposited in PubChem BioAssay by National Center for Advancing Translational Sciences (NCATS).
gsp ag = qHTS for Agonist of gsp, the Etiologic Mutation Responsible for Fibrous Dysplasia/McCune-Albright Syndrome: qHTS; actives 0.13% (n = 340,000); gsp mutant cells, cAMP HTRF, 30 min; control for the full effect not named in the record; AID 624287, 2012; Potency, µM (series often up to 76.9 µM), for inactives: top-dose activation (cAMP increase), most hits filed as activators; active = well fitted activation curve with a large enough effect; inconclusive = small, poorly fitted or top-dose-only effect, or another doubt; inactive = no such curve, though single readings can be large or run the other way; cell line not stated here;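 further: phosphodiesterase inhibitor Ro 20-1724 added with compounds to block cAMP breakdown; potency means the concentration at half of the fitted maximal effect; nearly all actives have a fitted effect of over 60% in size; about a fifth of the inactives were tested at one dose only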
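Cells stably selected in G418 were plated at 2000/well, grown 16-24 hr, then given compounds in DMSO with the PDE inhibitor […] (300 uM solution added) for 30 min at 37C; cAMP was read by HTRF.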
Sfp inh = qHTS Assay for Inhibitors of Bacillus subtilis Sfp phosphopantetheinyl transferase (PPTase). 4'-phosphopantetheinyl transferase ffp (Bacillus subtilis), Q9F4F7. Potency, µM, for inactives: max response, negative = inhibition, usual class: inhibitors. actives 3.5% (n = 310,000). Biochemical Sfp PPTase activity, qHTS. AID 1490, 2009; active means well fitted inhibition curve with a large enough effect; inconclusive means small, poorly fitted or top-dose-only effect, or another doubt; inactive means no such curve, though single readings can be large or run the other way;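 further: the enzyme is Sfp with the accession as filed and its product quenches rhodamine fluorescence; potency means the concentration at half of the fitted maximal effect; 0% = enzyme reaction without inhibitor and -100% = no enzyme wells; top concentration of the series not given in the record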
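Compounds were incubated with enzyme (final 15 nM) for 15 min at room temperature before substrate addition started the reaction. Fluorescence at 525 nm excitation, 598 nm emission was recorded immediately and after 30 minutes.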
gsp antagonist = qHTS for Antagonists of gsp, the Etiologic Mutation Responsible for Fibrous Dysplasia/McCune-Albright Syndrome: qHTS. gsp-mutant cells, cAMP HTRF, 30 min; control for the full effect not named in the record. Potency, µM (series often up to 76.9 µM), for inactives: at the highest dose activity change, negative = inhibition, most hits filed as inhibitors. actives 0.4% (n = 340,000); active = falling curve of any shape with a large fitted effect; inconclusive = falling curve, mostly with a smaller effect; inactive = flat or rising curve; cell line not stated here;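 further: intracellular cAMP measured with PDE inhibitor Ro 20-1724 present during compound exposure; potency means the concentration at half of the fitted maximal effect; on the % scale 0 is the no-effect control and ±100 the full control effect; nearly all actives have a fitted effect of over 65% in size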
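Cells, 2000/well, grown 16–24 h in DMEM 10% FBS with 0.5 mg/ml G418, then compounds plus […] (300 uM addition stock), 30 min at 37C. cAMP read by HTRF (cAMP-d2 and anti-cAMP antibody-K in lysis buffer) after 30 min RT.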
ClpP mod = qHTS Assay for Activators of ClpP; AID 651965, 2013; Potency, µM (titrated, usually from 57.5 µM), for the others: top-dose activity change, negative = active; ATP-dependent Clp protease proteolytic subunit (Bacillus subtilis (strain 168)), P80244; actives 1.9% (n = 340,000); purified B. subtilis ClpP, FRET peptide cleavage, 20 min; active = well fitted falling curve with a large enough effect; inconclusive = small, poorly fitted or top-dose-only effect; inactive = no such curve, though single readings can be large or run the other way; further: potency means the concentration at half of the fitted maximal effect; the source files actives as falling curves though it sought activators and does not explain the sign; nearly all actives have a fitted effect of over 65% in size; many hits overshoot -100%
Target sequence (P80244 whole entry, looked up): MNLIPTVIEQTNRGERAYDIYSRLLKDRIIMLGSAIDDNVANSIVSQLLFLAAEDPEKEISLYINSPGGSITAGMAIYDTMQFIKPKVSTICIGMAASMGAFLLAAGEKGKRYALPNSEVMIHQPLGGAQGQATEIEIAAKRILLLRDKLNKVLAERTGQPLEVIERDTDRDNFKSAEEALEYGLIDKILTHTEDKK
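Purified B. subtilis ClpP, 10 microg/mL final in Tris/HCl pH8 with KCl, BSA, glycerol and Tween-20, cleaved an Abz/nitrotyrosine-quenched decapeptide. Fluorescence (ex 320, em 430) was read at 0 and 20 min at room temperature. Delta was normalized to 5.8 microM ADEP and DMSO/no-enzyme controls.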
TRPV1 PAM = HTS Assay for Compounds that Act as Potentiators of the Vanilloid Receptor 1; TRPV1-expressing cells, Fluo-8 calcium influx, capsaicin EC20 potentiation; host cell line not named in the record; control for the full effect not named in the record; potentiation, % at 8.33 µM; actives 0.02% (n = 320,000); AID 540277, 2011; active means potentiation above 80%; inconclusive means 30% to 80%; inactive means below 30%; further: 0% is about no effect
Target sequence (Q8NER1 whole entry, looked up): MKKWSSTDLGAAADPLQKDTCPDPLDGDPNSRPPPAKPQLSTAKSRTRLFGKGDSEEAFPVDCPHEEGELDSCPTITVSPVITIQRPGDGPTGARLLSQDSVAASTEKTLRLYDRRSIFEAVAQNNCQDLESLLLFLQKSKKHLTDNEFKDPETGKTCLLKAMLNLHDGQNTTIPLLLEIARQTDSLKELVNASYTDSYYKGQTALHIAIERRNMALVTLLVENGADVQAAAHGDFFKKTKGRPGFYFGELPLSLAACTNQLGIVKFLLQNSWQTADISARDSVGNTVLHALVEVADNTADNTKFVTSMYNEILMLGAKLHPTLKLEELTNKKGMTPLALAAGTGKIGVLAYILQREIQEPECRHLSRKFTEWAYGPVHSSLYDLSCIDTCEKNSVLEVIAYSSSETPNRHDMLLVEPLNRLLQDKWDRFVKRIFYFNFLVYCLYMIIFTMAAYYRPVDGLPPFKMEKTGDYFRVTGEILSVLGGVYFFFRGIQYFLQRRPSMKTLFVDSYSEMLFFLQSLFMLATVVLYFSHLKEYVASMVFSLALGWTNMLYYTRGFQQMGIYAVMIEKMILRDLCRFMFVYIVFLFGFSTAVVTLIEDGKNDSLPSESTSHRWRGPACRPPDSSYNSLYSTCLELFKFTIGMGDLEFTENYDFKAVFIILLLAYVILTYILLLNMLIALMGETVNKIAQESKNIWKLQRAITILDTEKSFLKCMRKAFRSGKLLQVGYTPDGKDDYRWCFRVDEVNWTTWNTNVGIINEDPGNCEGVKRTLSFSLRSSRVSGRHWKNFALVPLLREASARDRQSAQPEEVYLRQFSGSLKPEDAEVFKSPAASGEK
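Cells expressing TRPV1 were dye-loaded with Fluo-8 and read kinetically: 10 s baseline, 3 min after compound (agonist portion), then 2 min after EC20 capsaicin (allosteric enhancer portion). Calcium-bound dye fluorescence at 480/520 nm.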
Menin MLL FP FL = qHTS Assay for Inhibitors Targeting the Menin-MLL Interaction in MLL Related Leukemias: Competition With Fluorescein Labeled MLL-derived Peptide; Fluorescence polarization, fluorescein-MLL peptide displacement from menin; FP activity change, % at 61.4 µM; 290,000 tested, under 10 active; AID 1766, 2009; inconclusive = falling polarisation curve, or a change in total fluorescence; inactive = total fluorescence flat and polarisation flat or rising; no compound was filed as active; the % refers to the polarisation; negative = inhibition;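 further: % of control where 0% means no effect; inhibitors lower the polarisation; unlabelled MLL peptide was the positive control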
TRPML1 inh = qHTS for Inhibitors of the Human Mucolipin Transient Receptor Potential 1 (TRPML1); actives 0.02% (n = 390,000); TRPML1-inducible cells, Ca2+ dye fluorescence, FDSS; hits give low values; inhibition of EC80 agonist-evoked calcium signal; activity change, negative = inhibition, % (no concentration beside the values); Mucolipin-1 (Homo sapiens), Q9GZU1; in the data active means activity change below about -50%; inconclusive means about -30% to -50%; inactive means above about -30%;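 further: stimulus is agonist 54-4 at its EC80 concentration; on the % scale 0 is the no-effect control and ±100 the full control effect; compound concentration not given in the record; the text of the record puts the active cut at -80%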
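Tet-induced TRPML1-DL cells loaded with Ca8 no-wash calcium dye were read kinetically on FDSS. Compound addition was followed by EC80 agonist 54-4 (4 uM final); inhibition was read over 110 s.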
Starred values were filed as active, the others as inactive; ? = inconclusive; nt = no result given; & = joins results of further samples; [ ] = another dose, or the depositor's remark.

SMILES	gsp ag	Sfp inh	gsp antagonist	ClpP mod	TRPV1 PAM	Menin MLL FP FL	TRPML1 inh
O=C1CCCC/C1=C\Nc1ccc(O)cc1	-26.5%	22.4µM*	-16.6%	0.6%	5.9	0.5	-3.3
CCOC(=O)c1cnc(Nc2nc3ccccc3o2)nc1CSc1ncccn1	?	nt	4.5%	-3.5%	nt	nt	1.7
COCC(C)NC(=O)CCSc1nc(-c2ccc(OC)cc2)cc(C(F)(F)F)n1 (centres undefined)	8.7%[15.4 µM]	16.2%	-21.8%	-3.8%	?	7.8	3.8
O=C1CCN(S(=O)(=O)c2ccc(Cl)cc2)CCN1	?	15.1%	-1.3%	-1.8%	5.3	1.6	nt
CSc1nc2c(c(=O)[nH]1)C(c1ccncc1)C(C(=O)OC(C)C)=C(C)N2 (centres undefined)	2.7%	6.6%	-0.4%	-7.3%	5.4	2.5	-5.8
Cn1cnnc1SCC(=O)NCc1cccc(C(F)(F)F)c1	1.3%	17.4%	4.6%	-4.7%	4.9	1.1	-9.8
COc1ccc(N/C=C2\CCOC2=O)cc1	-49.2%[inhibitor]	18.4%	-12.5%	-4.5%	5.0	0.8	18.4
O=C1CCC([N+](=O)[O-])C(c2cccc3ccccc23)N1 (centres undefined)	1.7%	10.4%	8.6%	-2.1%	-19.9	3.9	0.5
COC(=O)c1cn(CCOc2ccccc2F)c2ccccc12	20.7%	-9.1%	-21.9%	-2.9%	-11.4	4.7	29.2
CCN(CC(=O)NCc1ccc(F)cc1)C(=O)c1cccnc1SC	-13.7%	12.4%	3.1%	nt	15.0	-1.5	11.0
CCOC(=O)C(=CNc1ccc(NC2=NCC(C)(C)S2)cc1)C(=O)OCC	-9.2%[15.4 µM]	-1.8%	?	nt	-6.0	1.4	19.9
COC(=O)COc1ccc(C2NC(=O)NC(c3ccccc3)=C2C(C)=O)cc1OC (centres undefined)	4.8%	8.2%	12.9%	-1.6%	26.7	6.0	9.1
C[C@@H](C(=O)NC1CCCC1)N1C(=O)N2CCc3c([nH]c4ccccc34)[C@@]2(C)C1=O	nt	19.7%	-8.3%	-4.5%	2.1	-0.4	nt
O=C1NC2(CCCCCC2)N=C1c1ccc(Br)cc1	2.3%	-3.5%	-5.4%	-0.6%	13.9	-2.7	28.4
CC(=O)c1cccc(NC(=O)CCOc2ccccc2)c1	6.6%	6.5%	2.9%	3.4%	-2.3	1.2	24.5
COc1ccc(CCNC(=O)C(=O)NCCC2CCCCN2S(=O)(=O)c2ccccc2)cc1 (centres undefined)	21.8%	nt	-19.5%	-2.2%	-25.2	nt	25.4
Cc1ccc(CNS(=O)(=O)c2c(C)n(C)c(=O)n(C)c2=O)cc1	-20.4%[15.4 µM]	18.9%	6.3%	nt	-4.7	-2.7	-10.4
CCNc1cc(Cl)nc(SC)n1	-3.4%	20.7%	11.0%	0.3%	11.4	5.1	4.6
Cc1ccccc1CC(=O)Nc1cccnc1	-3.4%[15.4 µM]	8.6%	8.2%	-0.1%	-1.0	-4.2	-18.0
CC(NC(=O)CCNC(=O)c1ccco1)c1ccccc1 (centres undefined)	5.2%[15.4 µM]	nt	-0.9%	nt	-1.6	nt	-0.9
CC(=O)c1cccc(NC(=O)c2ccccc2N(C)S(=O)(=O)c2ccc(C)cc2)c1	23.4%[15.4 µM]	18.9%	-24.7%	-1.1%	-17.5	2.3	-21.2
O=C(c1cc(S(=O)(=O)N2CCOCC2)ccc1F)N(CCc1ccccc1)Cc1ccccc1	-19.8%[15.4 µM]	nt	-10.8%	nt	-1.9	nt	47.7
CSc1ccc(/C=C/C(=O)OCC(=O)NC2CCCCCC2)cc1	1.2%	nt	nt	4.0%	nt	nt	-0.9
C=CCN(c1ccccc1)S(=O)(=O)c1cccc(C(=O)NCC2CCCO2)c1 (centres undefined)	-23.8%	29.6%	0.7%	28.2µM*	-21.0	nt	12.0
O=C(c1ccc(F)c(S(=O)(=O)N2CCOCC2)c1)N1CCN(c2ncccn2)CC1	-6.3%	nt	10.8%	-10.7%	-1.4	nt	9.9
CC(C)(C)NC(=O)c1ccc(COc2ccc(Cl)cc2Cl)o1	24.3%	-9.0%	-11.3%	nt	-7.6	-0.2	-12.0
Cc1cccc(NC(=O)COC(=O)C(NC(=O)c2cccc(S(=O)(=O)N3CCOCC3)c2)C(C)C)c1 (centres undefined)	26.8%	nt	?	1.2%	nt	nt	9.0
COCCCNC(=O)C1CC(=O)N(Cc2ccc(OC)cc2)C1 (centres undefined)	-30.6%[inhibitor]	12.6%	0.3%	0.4%	-2.4	2.9	10.9
CCOc1cc(C(=O)NC2=NCCS2)cc(OCC)c1OCC	8.2%	14.5%	8.0%	-3.7%	3.2	-2.5	1.7
CCCCOCP(=O)(CC)COCCCC	21.0%	16.4%	7.0%	-2.0%	-1.5	1.5	1.1
Cc1cnc(C(=O)OCC(=O)NC2CCCCC2)cn1	-0.3%	4.3%	12.6%	0.2%	-3.1	2.1	-17.1
Cc1ccc(C(=O)CSc2nnc(-c3ccncc3)n2C)cc1	-10.6%[15.4 µM]	14.8%	-7.8%	nt	8.1	-0.2	-11.4
CCN(C(=O)C1CCCCC1)c1nnc(-c2cccnc2)s1	-9.4%	-5.0%	-10.1%	-12.3%	-18.9	1.0	15.5
CCOC(=O)N1CCC(NS(=O)(=O)c2ccc3c(c2)CCN3C(C)=O)CC1	-12.2%	0.0%	-18.3%	-0.3%	1.6	-2.7	-12.6
C=CCc1ccc(OCCOCCOc2ccccc2[N+](=O)[O-])c(OC)c1	-16.9%	-6.1%	-6.6%	1.3%	-4.4	0.6	1.6
COc1cccc(-c2nc(CS(=O)(=O)CC(=O)N3CCCCC3)c(C)o2)c1	12.3%	13.1%	24.3%	-14.6%	-22.3	0.7	?
C[C@H](CO)N1C[C@H](C)[C@@H](CN(C)S(=O)(=O)c2ccc(Oc3ccccc3)nc2)OCc2cnnn2CCCC1=O	-46.1%[inhibitor]	nt	nt	0.3%	nt	nt	-17.7
CCC(CO)NCC#Cc1ccccc1 (centres undefined)	-19.7%[15.4 µM]	6.6%	16.0%	nt	8.3	-3.1	-0.5
O=C(O)CCC(=O)N1CCN(c2nc(-c3ccccc3)c3cc(Br)ccc3n2)CC1	?	-0.1%	?	nt	?	2.5	17.7
CN(c1ccc2nc3ccccc3c(=O)n2n1)C1CCCCC1	28.0%	13.2%	-4.1%	-2.9%	-8.7	1.1	16.5
CCOC(=O)C1CCN(C(=O)CSc2nc(N)cc(=O)[nH]2)CC1	20.8%	10.3%	4.9%	nt	-3.3	0.5	-11.1
COC(=O)c1ccc(CSc2nnc(-c3ccccc3)n2C)o1	0.3%	0.2%	0.8%	0.4%	-5.7	-0.3	5.3
COc1ccccc1N1CCN(c2cnccn2)CC1	13.1%	12.2%	4.2%	nt	3.4	0.0	18.3
COc1cc(OC)cc(C(=O)Nc2ccc3nc4n(c(=O)c3c2)CCCCC4)c1	24.5%	22.9%	4.1%	-1.8%&0.2%	3.1	0.6	-3.0&-6.1
CCCCn1c(N)c(N(CC(C)C)C(=O)C2CC(=O)N(Cc3ccccc3)C2)c(=O)[nH]c1=O (centres undefined)	0.8%[15.4 µM]	nt	-4.1%	0.7%	29.8	nt	4.8
Cc1ccc(NC(=S)N(CCN(C)C)C(C)c2ccco2)cc1Cl (centres undefined)	7.2%	12.3%	-31.1%	0.5%	-17.9	-2.6	-0.1
CCOC(=O)C1CCN(c2c(NCc3ccc(C(=O)N(C)Cc4ccccc4)cc3)c(=O)c2=O)CC1	26.3%	8.0%	-6.9%	nt	-3.6	-3.0	1.2
CC(=O)NC(C)C(=O)OCC(=O)c1ccc(Cl)s1 (centres undefined)	30.0%	23.2%	7.3%	0.6%	-4.1	-1.1	7.7
Cn1c(C(=O)N2CCCc3ccccc32)cc2sccc21	24.2%	6.7%	-28.4%	0.1%	-1.4	0.6	6.7
O=Cc1ccc(OC(=O)c2cc(Cl)nc3ccccc23)cc1	14.4%[15.4 µM]	-5.5%	-8.3%	nt	-23.5	2.4	-16.1
Cc1cc(C(=O)CSc2nc(N)cc(=O)[nH]2)ccc1F	?	12.2%	6.2%	-3.9%	2.8	1.8	-3.0
CCCCc1ccc(NC(=S)NCCc2ccc(F)cc2)cc1	-0.3%[15.4 µM]	-4.4%	2.1%	nt	-2.8	0.2	-3.7
Nc1nc2ccc(Oc3ccccc3)cc2s1	3.1%	-0.2%	7.5%	1.5%	-1.0	1.0	28.4
CCN1CCCC(OC(=O)C(c2ccccc2)c2ccccc2)C1 (centres undefined)	nt	2.1%	3.2%	-1.8%	6.1	0.7	25.6
CC(C)c1ccc(CN(C)C(=O)c2ccc(S(=O)(=O)NCc3ccco3)cc2)cc1	-2.6%	nt	?	1.4%	-4.8	nt	-3.4
Cn1c(=O)n(C)c2cc(C(=O)Nc3ccc(Br)cc3)ccc21	-5.9%[15.4 µM]	5.0%	-15.7%	-3.4%	9.2	?	-7.6
CCn1c(SCC(=O)Nc2nnc(C)s2)nnc1-c1ccco1	?	22.2%	-1.9%	0.0%	1.2	-0.2	0.6
OCC1(O)OC[C@@H](O)[C@H]1O (some centres undefined)	-3.7%	-7.0%	-0.9%	-1.2%	11.0	6.4	4.5
